# PINK1 expr mod = modulators of PINK1 expression; hit rate 0.2% among 410,000; Potency, µM (series often up to 76.6 µM), without a hit: at the highest dose activation (PINK1 increase), actives largely listed as activators; AID 624263; PINK1 immunofluorescence, high-content cytometry, 24 h; active = well fitted activation curve with a large enough effect; inconclusive = small, poorly fitted or top-dose-only effect; inactive = flat fitted curve, though single readings scatter; cell line not stated here;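 also: potency is read from the fitted curve at half-maximal effect; % of control where 0% means no effect; nearly all actives have a fitted effect of over 65% in size; a mitochondrial uncoupler was the plate control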
#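 PINK1 protein level read as immunofluorescence by microplate cytometer in a fixed, stained stable cell line after 24 h exposure to five compound concentrations, with CCCP as control.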
# TRPML1 inh = blocks the human TRPML1 channel | Q9GZU1 | activity change, negative = inhibition, % (no concentration beside the values) | TRPML1-inducible cells, Ca2+ dye fluorescence, FDSS; hits give low values; inhibition of EC80 agonist-evoked calcium signal | hit rate 0.02% among 390,000 | AID 624415; in the data active means activity change below about -50%; inconclusive means about -30% to -50%; inactive means above about -30%;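 also: stimulus is agonist 54-4 at its EC80 concentration; % is scaled to controls: 0 for no effect and ±100 for the full control effect; compound concentration not given in the record; the text of the record puts the active cut at -80%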
# Target sequence (Q9GZU1 whole entry, looked up): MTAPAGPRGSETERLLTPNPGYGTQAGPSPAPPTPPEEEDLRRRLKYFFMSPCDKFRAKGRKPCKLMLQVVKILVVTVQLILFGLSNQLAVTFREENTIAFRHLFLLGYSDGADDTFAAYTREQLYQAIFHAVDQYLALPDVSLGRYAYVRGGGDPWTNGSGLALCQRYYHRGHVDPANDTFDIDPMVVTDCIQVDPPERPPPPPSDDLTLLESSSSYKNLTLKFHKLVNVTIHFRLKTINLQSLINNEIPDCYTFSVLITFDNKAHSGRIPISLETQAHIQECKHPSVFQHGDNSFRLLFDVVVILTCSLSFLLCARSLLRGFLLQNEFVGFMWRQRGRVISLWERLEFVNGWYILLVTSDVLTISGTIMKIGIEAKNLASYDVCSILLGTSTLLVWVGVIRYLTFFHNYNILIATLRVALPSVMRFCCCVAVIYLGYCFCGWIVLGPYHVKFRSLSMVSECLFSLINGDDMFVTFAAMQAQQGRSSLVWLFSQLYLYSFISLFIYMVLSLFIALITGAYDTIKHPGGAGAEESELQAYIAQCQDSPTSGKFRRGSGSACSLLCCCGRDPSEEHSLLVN
#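 TRPML1-DL cells, Tet-induced overnight (~16 h, 37 °C) at 1,500 cells/well, were loaded with Ca8 no-wash dye plus quencher for 45-90 min at room temperature. Compounds were pinned during FDSS kinetic reading; agonist 54-4 at EC80 (4 uM final) then added.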
# CtBP-E1A blk = blocks the CtBP interaction with E1A; activity change, % (test concentration not listed); hit rate 0.49% among 340,000; AlphaScreen GST-E1A/His-CtBP binding, 1536-well; hits give low values; control for the full effect not named in the record; in the data active means activity change below about -65%; inconclusive means about -30% to -65%; inactive means above about -30%; also: % is scaled to controls: 0 for no effect and ±100 for the full control effect; compound concentration not given in the record
#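 Protein mix (5X: 125 nM each GST-E1A, His-CtBP) was incubated with pinned compound 2 h at 37 deg C in dark, in 50 mM Tris pH 8.0 buffer with 300 mM NaCl. Glutathione donor and nickel acceptor beads followed; AlphaScreen signal read after 1 h.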
# TRPML1 agonist = activates the human TRPML1 channel. Q9GZU1. TRPML1-expressing cells, Ca2+ dye fluorescence, FDSS; host cell line not named in the record; reference of the full effect not given here. activation, % (no concentration beside the values). hit rate 0.12% among 410,000. AID 624414; in the data active = activation above about 50%; inconclusive = about 30% to 50%; inactive = below about 30%; also: 0% is about no effect; the text of the record puts the active cut at 80%
#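 Cells: TRPML1-DL, 1X Tet inducer, ~16 h at 37 degrees C/5% CO2. Dye: ABD Ca8 no-wash + quencher, 45-90 min RT. Read: 10 s baseline, compound add, 110 s agonist phase; 54-4 EC80 (4uM final), 110 s antagonist phase.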
# D2 agonist = human D2 receptor agonism in beta-arrestin assay | hit rate 0.084% among 360,000 | P14416 | activation, % (concentration not given with the values) | AID 624465 | DiscoveRx PathHunter D2 beta-arrestin, luminescence, 90 min; 100% = 57 uM dopamine signal; in the data active = activation above about 40%; inconclusive = about 15% to 40%; inactive = below about 15%; also: compound concentration not given in the record; the text of the record calls up to 30% inactive
# Target sequence (P14416 whole entry, looked up): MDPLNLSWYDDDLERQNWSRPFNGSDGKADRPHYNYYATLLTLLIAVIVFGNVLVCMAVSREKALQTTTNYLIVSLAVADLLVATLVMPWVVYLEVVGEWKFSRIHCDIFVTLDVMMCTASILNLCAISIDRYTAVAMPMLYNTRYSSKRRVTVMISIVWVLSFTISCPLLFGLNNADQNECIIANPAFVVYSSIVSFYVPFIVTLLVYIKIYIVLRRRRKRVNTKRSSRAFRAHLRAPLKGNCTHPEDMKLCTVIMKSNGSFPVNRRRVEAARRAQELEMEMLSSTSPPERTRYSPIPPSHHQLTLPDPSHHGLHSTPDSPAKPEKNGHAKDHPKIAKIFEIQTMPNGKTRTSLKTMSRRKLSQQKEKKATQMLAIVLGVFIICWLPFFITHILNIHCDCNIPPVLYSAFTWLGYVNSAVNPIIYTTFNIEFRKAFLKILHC
#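 DiscoveRx PathHunter D2 beta-arrestin cells (2,100/well) attached overnight, then compound-stimulated 90 min at 37 C in HBSS/10 mM HEPES/0.1% Tween-20 buffer; beta-galactosidase complementation read by luminescence after 1 h at ambient temperature. Dopamine 57 uM final (EC100) as control.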
# Six1-Eya2 blk = inhibitors of human Six1/Eya2 interaction; AID 651725; Q15475+O00167; AlphaScreen GST-Six1/His-Eya2 binding, biochemical; hits give low values; control for the full effect not named in the record; hit rate 0.56% among 360,000; activity change, % (no concentration beside the values); in the data active = activity change below about -65%; inconclusive = about -30% to -65%; inactive = above about -30%; also: % is scaled to controls: 0 for no effect and ±100 for the full control effect; compound concentration not given in the record
#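 Homogeneous AlphaScreen proximity assay pairing GST-Six1 with His-tagged Eya2 (added as 5X mix: 250 nM and 500 nM) in 50 mM Tris pH 8.0, 300 mM NaCl, 1 mM TCEP. Glutathione donor and nickel acceptor beads; 1 h, 37 °C, dark.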
# * hit, by the source's call; ? = inconclusive; nt = not tested or not shown; & = joins results of further samples; [ ] = dose if it differs, or a comment. Compounds were not picked by outcome (roughly 1% active in at least one column).
SMILES,PINK1 expr mod,TRPML1 inh,CtBP-E1A blk,TRPML1 agonist,D2 agonist,Six1-Eya2 blk
CCc1ccc(NC(=O)CSc2nnc(-c3cnccn3)n2Cc2ccco2)cc1,-0.1%[38.3 µM],-4.6,-6.9,1.8,0.6,-1.2
c1ccc(COc2ccc(OCCCCN3CCCC3)cc2)cc1,8.3%,-6.1,4.6,-0.2,-6.3,-5.9
O=C(CCc1ccc(S(=O)(=O)NC2CCCCC2)cc1)NCc1cccnc1,-1.8%,4.1,-0.9,2.4,-0.3,-5.3
COc1ccc(CCN2C(=O)CC(N3CCN(C/C=C/c4ccccc4)CC3)C2=O)cc1OC (stereo not drawn),6.3%,-3.1,3.1,0.1,-2.5,-2.1
O=C(c1ccc2c(c1)N(Cc1cccc(Cl)c1)C(=O)c1ccccc1S2(=O)=O)N1CCN(Cc2ccccc2)CC1,2.1%,18.4,nt,1.0,nt,nt
CCOc1ccc(C(=O)NC2CC3CCCC(C2)N3CC(C)C)cc1 (stereo not drawn),-0.3%,3.3,-1.2,2.9,2.6,8.3
COc1ccc(C(=O)Nc2nnc(SCC(=O)NCc3ccco3)s2)cc1OC,?,-13.4,0.0,0.3,-0.7,8.0
COCc1ccc(CN2CCc3c([nH]c4ccccc34)C2CC(C)C)o1 (stereo not drawn),3.0%,5.9,-3.3,-0.2,3.7,-13.6
COc1ccc(CNC(=O)CN(c2ccc(C)cc2)S(=O)(=O)c2c(C)n[nH]c2C)cc1,-0.2%,-4.0,nt,-1.0,nt,nt
CCCOc1ccc(S(=O)(=O)NCCCN2CCOCC2)c2ccccc12,-1.3%,-5.2,6.1,-0.1,-2.7,0.4
COc1cc(NC(=O)Cc2ccc(Cl)cc2)ccc1NC(=O)c1ccco1,nt,31.6,7.6,2.0,5.9,-0.3
O=C1c2ccccc2C(Nc2ccc(F)cc2F)N1CCN1CCOCC1 (stereo not drawn),1.6%,4.1,1.2,0.1,-3.7,-0.7
O=C(NC(NNc1ccc([N+](=O)[O-])cc1)(C(F)(F)F)C(F)(F)F)c1ccc(Cl)cc1,?,4.3,0.0,-0.2,4.1,-11.2
O=S(=O)(NCC1CCCO1)c1ccc(S(=O)(=O)N2CCc3ccccc3C2)cc1 (stereo not drawn),3.4%[38.3 µM],-9.4,16.7,1.0,-1.0,0.8
C/C(CCC1CC(C)OC1=O)=N/Nc1nc(-c2ccccc2)cs1 (stereo not drawn),3.6%,-14.9,-6.8,-1.2,-3.6,-8.5
COC(=O)CCC(NC(=O)c1cc(-c2ccc3c(c2)OCCO3)oc1C)C(=O)OC (stereo not drawn),0.2%,6.2,-11.0,0.2,-1.5,-6.1
Cc1ccsc1/C=N/NC(=O)CO,0.3%,-2.7,0.9,-0.2,-4.0,6.2
COc1ccc(CSC2=C(C#N)C(=O)NC3(CCCCC3)S2)cc1,1.6%,0.1,-3.7,-0.5,-4.8,-27.0
O=C(Nc1nnc(CCc2ccccc2)s1)c1ccco1,-4.4%[38.3 µM],-9.5,2.0,0.4,-0.3,2.2
O=c1cc(-c2ccccc2)nc2c(-c3ccccc3)c(C(F)(F)F)[nH]n12,?,-14.4,12.9,1.4,14.4,10.3
O=C(CSc1ccccc1C(=O)O)c1ccc([N+](=O)[O-])cc1,-0.6%,19.7,nt,0.4,11.7,-5.9
C[C@@H]1CCCCO[C@H](CN(C)C(=O)Cc2ccccc2)[C@@H](C)CN([C@H](C)CO)C(=O)c2cc(N(C)C)ccc2O1,2.7%,-2.2,2.8,2.4,-2.4,-1.0
CCOC(=O)c1cccc(NC(=O)Cn2c(=O)c3cccn3c3ccccc32)c1,3.1%,-10.7,nt,5.4,nt,nt
CC(C)c1ccc2oc(=O)cc(CN3CCN(c4ccc(F)cc4)CC3)c2c1,1.4%,-14.7,?,10.1,-2.2,-16.2
CCCNC(=O)c1ccc(N(Cc2ccccc2)S(C)(=O)=O)cc1,3.8%[38.3 µM],11.0,2.2,1.0,-2.3,0.8
O=C(CNC(=O)c1ccc(F)cc1)N/N=C/c1cn[nH]c1-c1ccccc1,-0.2%,9.1,-13.3,3.1,2.9,-1.8
Cn1cc(SCC(=O)N2CCN(c3ccccc3)CC2)c2ccccc21,0.1%,30.6,-0.3,-0.7,-0.6,-3.3
CC(C)CNC(=O)[C@H](Cc1ccccc1)NC(=O)c1ccco1,0.7%,-15.2,3.2,1.4,-1.3,2.1
CN1C(=O)c2ccccc2Sc2ccc(NC(=O)NCc3cccc(Cl)c3)cc21,4.3%,-9.1,nt,0.4,nt,nt
CCCCCCCC(=O)Nc1cc(C(=O)NCCC)ccc1N1CCC2(CC1)CC(c1ccccc1)=NO2,0.6%,-2.4,6.1,0.0,-2.5,1.0
CCc1ccc2oc(=O)cc(CN3CCN(CCO)CC3)c2c1,0.6%,21.0,8.6,-0.1,-3.5,0.2
Oc1ccccc1C=NN1CCCCCC1,3.9%,8.0,-19.0,1.4,-1.8,?
COc1ccccc1NC(=O)Nc1cccnc1,1.2%,4.2,-12.0,-0.9,-7.8,-3.5
O=C(Cn1c(=O)n(-c2ccc(F)cc2)c(=O)c2sc3ccccc3c21)NC1CCCC1,5.1%,-12.0,nt,-0.5,nt,nt
CCCn1c(N)c(C(=O)CSc2ncc(C(F)(F)F)cc2Cl)c(=O)[nH]c1=O,8.0%,-2.0,0.9,1.7,-6.2,5.3
OCCCn1c(CCNc2nc(-c3ccc(F)cc3)cs2)nc2cc(C(F)(F)F)ccc21,-0.3%,-17.7,-8.7,0.2,0.5,-9.9
Cc1ccc(N2CC(O)Cn3c2nc2c3c(=O)n(C)c(=O)n2C)cc1 (stereo not drawn),-1.1%,0.7,-6.0,1.3,9.6,1.4
CCCNC(=O)Nc1ccc(C)cc1C,0.0%,9.0,nt,-0.6,4.3,-2.0
CN1CCN(c2ncnc3c2ncn3[C@H]2CN(Cc3cccs3)C[C@@H](CO)O2)CC1,-0.3%,nt,1.8,-0.4,-5.8,0.1
COc1ccc(-c2cnc(SCCNC(=O)c3ccc4c(c3)OCO4)[nH]2)cc1,-1.9%,5.9,-14.1,1.5,0.6,-13.8
Cc1ccc(C(=O)N/C(=C\c2ccccc2)C(=O)NCc2ccncc2)cc1,-0.4%,10.3,-1.3,0.5,1.5,5.2
COC(=O)c1ccccc1NC(=O)CSc1nc(NC(=O)c2ccccc2)c2c(C)c(C)oc2n1,-1.1%,0.2,-0.3,0.2,-2.2,17.1
CCCCOC(=O)CSCC(=O)Nc1cc(C)on1,-0.8%[38.3 µM],-11.4,-0.6,-0.7,-1.4,-0.7
O=C(O)C1CCN(C(=O)c2ccc3c(c2)OCO3)CC1,1.7%,-7.2,2.3,0.1,-1.1,-1.7
CCCCc1ccc(NC(=O)CC(C)C)cc1,-0.4%,7.1,10.5,2.1,-0.4,7.7
NC(=O)C1CCN(C(=O)c2cc(-c3ccc(Cl)s3)nc3ccccc23)CC1,1.2%,-9.5,-5.1,8.4,0.5,-0.6
CCc1noc(C)c1C(=O)OC(C)C(=O)c1c(C)[nH]c2ccccc12 (stereo not drawn),2.4%,5.6,nt,1.2,-0.6,-14.5
CCN(CC(=O)Nc1c(F)cccc1F)C(=O)C1CC(=O)N(c2ccc3c(c2)OCCO3)C1 (stereo not drawn),-0.9%,-1.6,9.9,0.0,-3.7,0.6
O=C(CCc1nnc(-c2ccc3c(c2)OCO3)o1)N1CCC(c2ccc(F)cc2)C1 (stereo not drawn),-0.6%,-1.1,1.0,0.6,-1.2,-2.8
Cc1cc(Cl)ccc1OCCCC(=O)NCC1CCCO1 (stereo not drawn),1.2%,2.3,-0.9,-0.5,-3.8,2.6
COCCn1c(C)cc(C(=O)CSc2nc(C)c(C)c(C)n2)c1C,5.4%,21.8,-12.4,-0.3,2.2,-2.5
O=C(Nc1cccc2cccnc12)c1ccccc1Cl,1.3%,-15.5,13.9,0.5,4.7,2.8
O=C(CCCN1C(=O)/C(=C/c2ccccc2)SC1=S)N1CCOCC1,0.8%,-17.6,23.6,1.0,-0.3,-2.9
COc1ccc(N(C)C(=O)Nc2ccc3c(c2)nnn3C)cc1,?,31.2,-3.4,0.5,-2.4,1.0
O=c1cc(-c2ccccc2)oc2c1CCCC2,0.1%,nt,0.0,-0.6,-6.8,3.7
COCCNC(=O)C1(C)CCCN(C(=O)c2ccc(N(C)C)cc2)C1 (stereo not drawn),1.3%,nt,-16.3,-0.2,-3.3,14.0
CCN(CC(=O)NCc1cccs1)C(=O)COc1ccc(C(C)=O)cc1,-1.8%,-7.7,-9.9,-0.2,-2.9,3.4
O=C(COc1ccc(-c2ccccc2)cc1)NNC(=O)Nc1ccccc1,1.9%,36.3,nt,-1.3,-2.7,8.4
Cc1cc(C(=O)N/N=C/c2ccc3c(c2)OCO3)c(C)n1-c1ccc(F)cc1,2.3%,32.0,-4.2,-1.3,-3.8,-25.0
CNC(=S)Nc1ccccc1-c1ccccc1,-1.5%,-15.2,7.6,0.0,-7.6,21.0

# (more compounds)
SMILES,PINK1 expr mod,TRPML1 inh,CtBP-E1A blk,TRPML1 agonist,D2 agonist,Six1-Eya2 blk
CCOc1ccc(C(=O)Nc2nnc(S(=O)(=O)Nc3ccccc3C)s2)cc1,-0.8%,32.9,-1.4,-0.7,-6.1,-1.6
O=C(CSc1ncn[nH]1)Nc1ccc2c(c1)OCCO2,nt,3.0,6.6,0.0,-1.4,0.1
O=C(NC1CC2CCCC(C1)N2C(=O)Nc1ccccc1Cl)C1CC1 (stereo not drawn),3.1%,22.0,5.7,-0.1,6.6,11.4
O=S1(=O)CCOCCCN1Cc1ccc(Cl)cc1,0.9%,5.5,-0.1,-0.8&-0.4,0.5,2.0
CCOC(=O)C1=CSC2=NS(=O)(=O)CCN12,-0.2%[38.3 µM],3.4,9.7,-0.2,1.4,1.9
Brc1ccc(-c2nc(-c3ccccn3)no2)o1,-2.7%,36.3,-0.6,-0.8,-1.8,5.6
Cc1ccccc1NC(=O)c1ccc(F)c(S(=O)(=O)N2CCCCC2)c1,0.5%,0.1,-5.4,-0.9,0.6,-0.2
O=S(=O)(c1ccccc1F)N1CCC(Oc2ccc(-n3cnnn3)cc2)CC1,1.1%&1.3%,-9.6&18.7,nt,0.9&2.1,10.2,3.5
COc1cccc(CNCCc2c[nH]c3ccccc23)c1OCc1ccccc1,-3.9%,-1.3,?,-0.5,-0.8,-27.9
O=C(COc1ccccc1F)Nc1nc(-c2ccccn2)cs1,-2.8%,-14.4,-89.0*,0.1,-2.2,-84.1*

# Compounds above that contain a nitro group on carbon, in the order listed:
SMILES,PINK1 expr mod,TRPML1 inh,CtBP-E1A blk,TRPML1 agonist,D2 agonist,Six1-Eya2 blk
O=C(NC(NNc1ccc([N+](=O)[O-])cc1)(C(F)(F)F)C(F)(F)F)c1ccc(Cl)cc1,?,4.3,0.0,-0.2,4.1,-11.2
O=C(CSc1ccccc1C(=O)O)c1ccc([N+](=O)[O-])cc1,-0.6%,19.7,nt,0.4,11.7,-5.9

# Screens: PubChem, National Center for Advancing Translational Sciences (NCATS)
